Screening data (PubChem BioAssay)
Rango-impB inh: Rango-importin beta binding inhibition. Potency, µM (doses to about 92.2 µM), for the others: at the top dose inhibition of complex formation. Rango CFP/YFP FRET sensor + importin beta, 45 min. actives 0.031% (n = 340,000). Q14974; active = rising FRET ratio curve, often small or poorly fitted; inconclusive = mostly compound fluorescence or quenching in the first reads; inactive = flat curves in all reads;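 further: potency means the concentration at half of the fitted maximal effect; 0% = DMSO wells and 100% = buffer wells lacking importin beta; nearly all actives have a fitted effect of over 15% in size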
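FRET biosensor (snurportin 1 IBB flanked by EYFP and cerulean), 50 nM, with compound 5 min, then 0.125 microM importin beta in PBS, 1 mM DTT, 0.02% Tween-20, 0.1% BSA. CFP/YFP ratio read after 45 min at room temperature; pre-read flags interference.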
Rango dissoc inh: inhibition of RanGTP-driven Rango-importin beta dissociation | Biochemical FRET Rango-importin beta, RanGTP-induced dissociation | Potency, µM (titrated, usually from 46.1 µM), for inactives: at the top dose activity change, negative = inhibition | actives 0.071% (n = 340,000); active means falling FRET ratio curve, often poorly fitted, with flat reads before Ran was added; inconclusive means other falling curves, or compound fluorescence or quenching; inactive means flat or rising ratio curve;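 further: potency means the concentration at half of the fitted maximal effect; % of control where 0% means no effect; nearly all actives have a fitted effect of over 45% in size; -100% = wells without RanGTP and RCC1; the record marks most hits as doubtful in a second field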
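Compounds sat 5 min at room temperature with 0.1 uM Rango biosensor plus 0.25 uM importin beta, then FRET pre-read. RanGTP-RCC1 (0.6 uM Ran, 2mM GTP, 0.2 uM RCC1) added for 45 min, and the CFP/YFP post-read measured blocked complex dissociation.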
GLA inh pH 4.5: inhibitors of human alpha-galactosidase A at pH 4.5 | purified enzyme, 4-MU-alpha-Gal fluorescence, pH 4.5 | activity change, negative = inhibition, % at 105 µM | 230,000 tested, under 10 active | AID 1467; inconclusive = small, poorly fitted or top-dose-only inhibition, or a rising curve; inactive = flat fitted curve, though single readings scatter; no compound was filed as active;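 further: 0% = full activity with enzyme and -100% = basal without enzyme; dose as in the result columns while the protocol names 77 µM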
Target sequence (P06280 whole entry, looked up): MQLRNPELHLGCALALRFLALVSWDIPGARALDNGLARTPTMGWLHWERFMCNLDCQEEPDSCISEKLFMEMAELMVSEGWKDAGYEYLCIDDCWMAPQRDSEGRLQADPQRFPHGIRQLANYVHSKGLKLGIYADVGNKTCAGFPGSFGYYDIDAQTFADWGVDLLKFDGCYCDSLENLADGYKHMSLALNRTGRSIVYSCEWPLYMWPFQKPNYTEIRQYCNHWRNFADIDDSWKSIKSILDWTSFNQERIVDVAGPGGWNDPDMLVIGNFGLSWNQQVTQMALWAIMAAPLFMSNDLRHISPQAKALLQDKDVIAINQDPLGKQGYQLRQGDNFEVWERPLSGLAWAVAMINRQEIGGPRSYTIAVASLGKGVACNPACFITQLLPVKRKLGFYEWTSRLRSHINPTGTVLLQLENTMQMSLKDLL
miR-21 reporter: miR-21 reporter, rising signal | 340,000 tested, under 10 active | HeLa miR-21 FLuc reporter, luciferase, 48 h | Potency, µM (series often up to 38.3 µM), inactives show at the highest dose reporter change, positive = more light; active = well fitted rising curve with a large enough effect; inconclusive = small, poorly fitted or top-dose-only effect; inactive = no such curve, though single readings can be large or run the other way;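 further: % of control where 0% means no effect; miR-21 action dims this reporter so a rising signal means less miR-21 action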
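Using DMEM plus 10% FBS, HeLa miR-21-FLuc cells are incubated with test compounds (final up to about 40uM) for 48 hours; firefly luciferase signal is then imaged following reagent-mediated lysis.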
* = called active by the depositor; ? = inconclusive; . = not tested or not shown; & = joins results of further samples.

Rango-impB inh,Rango dissoc inh,GLA inh pH 4.5,miR-21 reporter,SMILES
0.5%,0%,.,-1%,FC(F)(F)c1cccc(NC(=S)N2CCCC2)c1
-1.0%,-1%,9,23%,O=C(Cc1cccs1)NCCSc1c(-c2ccc(Cl)cc2)[nH]c2ccccc12
0.0%,2%,-5&-15,-3%,CCC/C=C(\CCC)C(NC(=O)Cc1ccccc1)c1ccc(C(=O)OC)cc1 (stereo not drawn)
1.7%,3%,2,-37%,CC(NC(=O)c1csc2ccccc12)C1CCCO1 (stereo not drawn)
0.8%,-7%,.,.,CCOc1ccc(NS(=O)(=O)c2ccc(C(=O)NCC(c3ccco3)N(C)C)cc2)cc1 (stereo not drawn)
1.7%,13%,.,.,CCN(C[C@H]1N[C@@](C)(C(=O)OC)[C@H]2C(=O)N(C)C(=O)[C@@H]12)C(=O)Nc1ccc(F)cc1
3.5%,6%,2,-16%,Cc1c(N)cccc1-c1nc2ccccc2[nH]1
-3.7%,-5%,-19,7%,Cc1ccc(SCCNC(=S)Nc2ccc(C)cc2C)cc1

Reprinted from the part before: 2 compounds; new compounds follow.
Rango-impB inh,Rango dissoc inh,GLA inh pH 4.5,miR-21 reporter,SMILES
3.5%,6%,2,-16%,Cc1c(N)cccc1-c1nc2ccccc2[nH]1
-3.7%,-5%,-19,7%,Cc1ccc(SCCNC(=S)Nc2ccc(C)cc2C)cc1
-0.3%,-5%,7,0%,Cc1ccc(S(=O)(=O)N2CCN(C(=O)CSc3nnc(-c4ccco4)o3)CC2)cc1
4.6%,34%,.,0%,CN(CC1CCCN(CCc2ccc(F)cc2)C1)C(=O)CCC(F)(F)F (stereo not drawn)
-6.0%,1%,-14,13%,Cc1ccc(C)c(Cn2c(CN(C)Cc3ccccc3)nc3c2c(=O)n(C)c(=O)n3C)c1
-0.7%,11%,-19,0%,O=C(CSc1ccccc1C(=O)O)NC1CCCCCC1
-0.3%,5%,2,-3%,OC(CN1CCN(c2ccccc2)CC1)c1c[nH]c2ccccc12 (stereo not drawn)
?,-16%,7,0%,COC(=O)c1cn(C(=O)c2cc(C)cc(C)c2)c2ccccc12
-0.5%,-8%,.,-1%,O=C(O)CN1C(=O)/C(=C2\SC(=S)N(C(Cc3ccccc3)C(=O)O)C2=O)c2ccccc21 (stereo not drawn)
1.2%,7%,7,0%,CCNC(=O)Nc1ccc(OC)cc1OC
2.8%,31%,.,.,CN(C)C(CNC(=O)c1cc(S(=O)(=O)N(C)Cc2ccccc2)ccc1Cl)c1ccco1 (stereo not drawn)
?,-9%,.,-4%,COc1ccc(/C=C/c2nc(S(=O)(=O)c3ccccc3)c(N(C)C)o2)cc1OC
?,?,3,-5%,CC1CC(C)CN(S(=O)(=O)c2cccc(C(=O)N3C(=O)c4cccc(N)c4C3=O)c2)C1 (stereo not drawn)
3.6%,2%,.,-33%,Oc1ccc(N=Nc2ccc3ccccc3c2)cc1
0.6%,2%,0,1%,Cc1cc(Br)ccc1NC(=S)Nc1cccc([N+](=O)[O-])c1
0.2%,7%,4,0%,CCOC(=O)/C=C/C(=O)Nc1ccccc1C(=O)NC1CCCCC1
-0.6%,10%,2,-4%,CCOc1cc(/C=N/NC(=O)CN2CCCCC2)ccc1OCc1ccccc1
3.0%,-7%,-2,-10%,CC1(C)Cc2cccc(Oc3ccc(S(=O)(=O)N4CCCC4)cn3)c2O1
2.3%,6%,4,-11%,Cc1cc(C)n2[nH]c(=O)c(N=Nc3cccc(Cl)c3)c2n1
-1.0%,-2%,.,0%,Cc1c(C)c2ccc(O[C@@H]3O[C@H](CO)[C@H](O)[C@H](O)[C@H]3O)cc2oc1=O
-0.8%,4%,.,-58%,N#C/C(=C\c1ccc(F)c(Br)c1)C(=O)NC1CC1
-0.7%,16%,.,.,Cc1ccc(S(=O)(=O)N2CCOCC2)cc1C(=O)NCc1ccccn1
-3.4%,-7%,-1,-5%,CCCCSc1nnc(-c2cc(Br)ccc2N)c(=O)[nH]1
-0.4%,8%,.,-2%,COc1ccc(N(C(=O)c2ccco2)C(C(=O)NC2CCCC2)c2ccncc2)cc1 (stereo not drawn)
-1.7%,13%,-3,-7%,O=C(OCc1nnc(-c2ccccc2)o1)c1ccc2c(c1)OCO2
3.9%,-4%,.,-4%,COC(=O)c1c(C(=O)OC)c(-c2cccc(Cl)c2)n2c1CS(=O)(=O)C2
-0.2%,1%,.,.,OCC1OC(n2ccc3c(SCc4ccccc4)ncnc32)C(O)C1O (stereo not drawn)
2.3%,1%,-2,-10%,COc1ccc(/C=N/n2cnnc2)cc1COc1ccccn1
1.5%,-12%,.,.,Nn1c(SCC(=O)NCC2CCCO2)nnc1-c1cc(Cl)ccc1Cl (stereo not drawn)
-2.5%,-20%,-16,-9%,O=C(NC(=S)N1CCc2ccccc21)c1ccccc1
-2.5%,-20%,.,.,C[C@H](CO)N1C[C@H](C)[C@@H](CN(C)Cc2ccc(-c3ccccc3)cc2)Oc2c(NC(=O)Nc3ccc(C(F)(F)F)cc3)cccc2C1=O
2.7%,-6%,-5,-10%,Cc1ccccc1NC(=S)N(Cc1cccnc1)Cc1ccco1
-3.1%,?,-6,23%,COc1ccc(-c2cc(C(=O)N/N=C/c3sccc3C)c3ccccc3n2)c(OC)c1
0.6%,17%,9,-21%,O=C(NCC(c1ccco1)N1CCCC1)c1ccccc1F (stereo not drawn)
3.3%,-7%,-14,-9%,CCNc1nc(NC(C)(C)C)nc(N(C#N)CC)n1
-0.7%,24%,.,3%,CCn1cc(C(=O)O)c(=O)c2cc(F)c(N3CCN(C(=S)NC(=O)c4ccccc4Br)CC3)cc21
-2.8%,-4%,8,-1%,CCCCc1nc(SCCOC)c2c(=O)n(C)c(=O)n(C)c2n1
-2.5%,-4%,-8,0%,COc1ccc(CC(CC(=O)O)C(=O)Nc2ccccc2)cc1 (stereo not drawn)
-2.7%,-7%,-2,-10%,O=S(=O)(c1ccc2oc3ccccc3c2c1)N1CCCC1
-3.7%,-18%,11,-3%,C=CCSc1nc2ccsc2c(=O)n1-c1ccccc1
2.0%,9%,-2,2%,CC(=O)Nc1cc(C(=O)N2CCc3ccccc3C2)ccc1Sc1ccc(Cl)cc1
-0.1%,0%,-4,-20%,CCOC(=O)c1ccc(Nc2nc(=O)c3cccnc3s2)cc1

As a short view, part of the list above.
Rango-impB inh,Rango dissoc inh,GLA inh pH 4.5,miR-21 reporter,SMILES
3.3%,-7%,-14,-9%,CCNc1nc(NC(C)(C)C)nc(N(C#N)CC)n1
-0.7%,24%,.,3%,CCn1cc(C(=O)O)c(=O)c2cc(F)c(N3CCN(C(=S)NC(=O)c4ccccc4Br)CC3)cc21
-2.8%,-4%,8,-1%,CCCCc1nc(SCCOC)c2c(=O)n(C)c(=O)n(C)c2n1
-2.5%,-4%,-8,0%,COc1ccc(CC(CC(=O)O)C(=O)Nc2ccccc2)cc1 (stereo not drawn)
-2.7%,-7%,-2,-10%,O=S(=O)(c1ccc2oc3ccccc3c2c1)N1CCCC1

Following part.
Rango-impB inh,Rango dissoc inh,GLA inh pH 4.5,miR-21 reporter,SMILES
1.9%,5%,.,-1%,CC1CCCC(NC(=O)CCNC(=O)c2ccc([N+](=O)[O-])cc2)C1C (stereo not drawn)
-4.5%,-13%,2,-2%,CC(Oc1ccc(-c2ccccc2)c(F)c1)c1ccn(S(=O)(=O)c2ccc(F)cc2)n1 (stereo not drawn)
-1.8%,7%,-3,-1%,CC(C)CCNC(=O)C1CCN(c2nc3ccccc3o2)CC1
2.3%,15%,-7,-2%,O=C(Nc1cccnc1)c1ccccc1Oc1ccccc1
-0.2%,28%,.,-1%,CC(C(=O)O)N1C(=O)C2C3c4ccccc4C(c4ccccc43)[C@@H]2C1=O (stereo partly drawn)
0.5%,14%,4,-11%,COc1ccc(C2(C(=O)Nc3ccc(S(=O)(=O)Nc4nc(C)cc(C)n4)cc3)CCCC2)cc1OC
1.2%,7%,1,-3%,Cc1ccnc2nc(C(=O)OCC(=O)NCCc3ccc(Cl)cc3)nn12
?,-17%,.,.,Cc1ccc2c(c1)CCCN2CC(=O)Nc1cccc(S(=O)(=O)N2CCCC2)c1
3.1%,-20%,7&2,-1%,C#CC(C)OC(=O)C(C)NC(=O)c1ccccc1 (stereo not drawn)
-3.0%,-16%,-5,-5%,c1ccc(-c2noc(CN3CCN(c4ccccc4)CC3)n2)cc1
-0.3%,8%,3,0%,Cc1ccc(-c2nc(CS(=O)CC(=O)NCCN3CCOCC3)c(C)o2)cc1 (stereo not drawn)
-0.5%,32%,-3,1%,COc1cccc(S(=O)(=O)NCc2ccc(C(=O)NCc3ccco3)cc2)c1
-1.0%,-9%,.,-2%,CN(C)CCCNC(=S)N(CCO)Cc1cc2cc3c(cc2[nH]c1=O)OCO3
-2.7%,3%,-14,1%,Cc1ccc2cc(S(=O)(=O)NCCCN3CCOCC3)ccc2c1
6.3%,11%,-3,-1%,COC(=O)c1cn(NC(=O)COc2ccc(Cl)cc2)c(=O)c2ccccc12
0.1%,-2%,4,-17%,O=C(NCCCO)c1nc2ccccc2s1
?,?,?,11%,COCCNC(=O)c1c(N)n(/N=C/c2cccs2)c2nc3ccccc3nc12
-0.7%,1%,3,13%,Cc1noc(C)c1COC(=O)c1cccc(S(=O)(=O)N2c3ccccc3CC2C)c1 (stereo not drawn)
1.5%,-12%,9,-4%,COc1ccc(NC(=O)c2ccc(-n3cccn3)nc2)cc1
0.3%,0%,.,-61%,COc1ccc(N=Nc2ccc3ccccc3c2)c(O)c1
-3.5%,1%,-1,-2%,CN(CC(=O)Nc1sccc1C#N)C1CCCCC1
?,?,-11,-13%,N#C/C(=C(/O)COC(=O)c1ccc(C#N)cc1)c1nc2ccccc2s1
3.3%,1%,1,-6%,Nc1nc(CN2CCN(C(=O)c3ccco3)CC2)nc(Nc2cccc(Cl)c2)n1
-2.0%,-7%,0,-6%,O=C(NCc1ccncc1)Nc1ccc(F)cc1

Shown with values under each structure: part of the list above.
Screens in order – Rango-impB inh	Rango dissoc inh	GLA inh pH 4.5	miR-21 reporter
> O=C(NCc1ccncc1)Nc1ccc(F)cc1
    -2.0%	-7%	0	-6%
> CN(CC(=O)Nc1sccc1C#N)C1CCCCC1
    -3.5%	1%	-1	-2%

(cont.)
Rango-impB inh,Rango dissoc inh,GLA inh pH 4.5,miR-21 reporter,SMILES
-0.4%,-9%,-5,-18%,COCCNC(=O)C(c1ccc(C)cc1)N(C(=O)C(=O)NC1CCCC1)c1ccc2c(c1)OCCO2 (stereo not drawn)
1.7%,9%,.,.,CC(OC(=O)CCCOc1ccccc1)C(=O)Nc1ccc(Cl)cn1 (stereo not drawn)
?,?,-3,15%,O=C1CCCC2=C1Sc1ccc(Cl)cc1N2
-3.5%,4%,.,.,Cc1ccc(S(=O)(=O)N2CCCCC2)cc1NC(=O)CSc1nc(N)cc(=O)[nH]1
1.6%,1%,-13,-12%,CCOC(=O)N1CCN(Cc2c(NC(=O)c3ccco3)sc(C)c2C)CC1
2.9%,-28%,4,-2%,Cc1ccccc1NS(=O)(=O)c1ccc2[nH]cc(C(=O)NCCCN3CCOCC3)c(=O)c2c1
0.3%,16%,-21,-1%,O=C(Nc1c(Cl)ccc2nsnc12)c1ccco1
-2.2%,2%,-9,0%,COc1ccc(NC2=C(C(C)=O)C(c3ccc(N(C)C)cc3)C(C(C)=O)C(C)(O)C2)cc1 (stereo not drawn)
1.1%,0%,-2,-10%,COc1ccc(/C=N/NC(=O)CNc2c(Br)cc(C)cc2Br)c(C(=O)O)c1OC
-0.3%,10%,5,-7%,COc1ccc(Cl)cc1NC(=O)c1cnc2n(c1=O)CCS2
-2.1%,7%,.,.,CCCCOc1ccc(C(=O)NCC(=O)NCCOc2ccc(C)cc2)cc1
0.6%,-1%,.,1%,CCn1cc(C(=O)N[C@@H](C)C(=O)NCCO)c(=O)c2cc3c(cc21)OCO3
-1.0%,2%,.,4%,CC1CCCN(S(=O)(=O)c2ccc(Cl)s2)C1 (stereo not drawn)
?,10%,.,14%,Cc1ccc(/C=C/C(=O)NCCc2cccc(Cl)c2)o1
-2.7%,0%,21,0%,CC(C)C(NS(=O)(=O)c1cc(C(=O)O)ccc1Cl)C(=O)O (stereo not drawn)
?,?,2,-4%,COC(CNC(=O)c1ccc2nc(-c3cccs3)c(-c3cccs3)nc2c1)OC

The list is partial; rates above refer to the full screens.
